Screening data from PubChem BioAssay.
Marburg entry inh: qHTS for inhibitors of binding or entry into cells for Marburg Virus | 300,000 compounds, 1.8% hits | Potency, µM (titrated, usually from 37.8 µM), inactives show top-dose activity change, negative = inhibition, actives largely listed as inhibitors | Marburg virus pseudotyped entry inhibition, cell reporter; control for the full effect not named in the record; about a third of the inactives were read at about 46 µM; active = well fitted inhibition curve with a large enough effect; inconclusive = small, poorly fitted or top-dose-only effect, or effect the other way; inactive = flat fitted curve, though single readings scatter; tested in HEK293 cells; about a fifth of its hits are not listed in these tables; note: % is set by controls: 0 for no effect and ±100 for the full control effect; luciferase read-out
SARS PLpro yeast: qHTS of Yeast-based Assay for SARS-CoV PLP. S. cerevisiae expressing SARS-CoV PLpro, growth rescue; control for the full effect not named in the record. Potency, µM (doses to about 32.9 µM), for inactives: at the top dose activity, positive = growth rescue. 330,000 compounds, 0.19% hits; active means well fitted rising curve with a large enough effect; inconclusive means small, poorly fitted or top-dose-only effect; inactive means no such curve, though single readings can be large or run the other way; note: 0% is about no effect; nearly all actives have a fitted effect of over 55% in size; growth read by luminescence after 48 h
2A StopGo: High Throughput Screening for Foot and Mouth Disease Virus Antivirals | human cells with a luciferase reporter of 2A StopGo recoding; control for the full effect not named in the record | Potency, µM (highest dose often 57.9 µM), inactives show at the top dose signal change, negative = less light | 410,000 compounds, 1.2% hits | AID 1159524, 2015; active = well fitted falling curve with a large enough effect; inconclusive = small, poorly fitted or top-dose-only effect; inactive = no such curve, though single readings can be large or run the other way; tested in HEK293T cells; note: % is set by controls: 0 for no effect and ±100 for the full control effect; nearly all actives have a fitted effect of over 45% in size; luciferase light after 4 h
RE007 growth inh: qHTS Assay for Inhibitors of the HIV-1 protein Vpr; S. pombe RE007 Vpr strain, BacTiter-Glo ATP luminescence, 24 h; control for the full effect not named in the record; Potency, µM (series often up to 92.2 µM), for the others: top-dose activity change, negative = less growth; 360,000 compounds, 0.21% hits; AID 651644, 2012; active = well fitted falling curve with a large enough effect; inconclusive = small, poorly fitted or top-dose-only effect; inactive = no such curve, though single readings can be large or run the other way;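 note: % is set by controls: 0 for no effect and ±100 for the full control effect; nearly all actives have a fitted effect of over 50% in size; the assay follows cell death caused by Vpr and the record does not say whether a fall means rescue or toxicity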
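Fission yeast strain RE007, carrying one chromosomally integrated HIV-1 vpr copy, was seeded at OD 0.01 in PMG+AL medium with 23 nL pinned compound. After 24 h at 30 °C and 99% humidity, viability was read by BacTiter-Glo luminescence.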
Cruzain inh Det: qHTS Assay for Promiscuous and Specific Inhibitors of Cruzain (with detergent); purified cruzain, Z-FR-AMC fluorescence, 0.01% Triton; Potency, µM, without a hit: max response, negative = inhibition, usual class: inhibitors; 200,000 compounds, 0.43% hits; AID 1478, 2009;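 note: plate controls were neutral wells for no effect and buffer without enzyme for full effect; nearly all actives have a fitted effect of over 40% in size; top concentration of the series not given in the record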
Target sequence (P25779 123-467 limits assumed): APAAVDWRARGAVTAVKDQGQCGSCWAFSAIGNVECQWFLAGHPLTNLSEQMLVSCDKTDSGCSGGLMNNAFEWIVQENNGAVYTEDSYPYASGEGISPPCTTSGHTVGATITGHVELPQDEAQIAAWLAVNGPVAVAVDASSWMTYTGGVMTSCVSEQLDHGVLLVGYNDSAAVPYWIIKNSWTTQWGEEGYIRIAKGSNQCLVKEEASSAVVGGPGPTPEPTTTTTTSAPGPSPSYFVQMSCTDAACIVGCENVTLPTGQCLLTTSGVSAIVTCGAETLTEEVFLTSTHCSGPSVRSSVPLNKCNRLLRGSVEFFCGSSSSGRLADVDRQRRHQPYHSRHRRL
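Sodium acetate buffer (100 mM, pH 5.5) containing 5 mM DTT and 0.01% Triton X-100 hosted 1.5 nM cruzain and test compound for 15 min at room temperature. Cleavage of 2 uM Z-FR-AMC was then tracked by fluorescence.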
Cruzain inh noDet: qHTS Assay for Promiscuous and Specific Inhibitors of Cruzain (without detergent). Cruzipain (Trypanosoma cruzi), P25779. purified cruzain, Z-FR-AMC fluorescence, no detergent. Potency, µM, without a hit: max response, negative = inhibition, usual class: inhibitors. 200,000 compounds, 2.3% hits;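 note: plate controls were enzyme without inhibitor for no effect and buffer without enzyme for full effect; nearly all actives have a fitted effect of over 40% in size; top concentration of the series not given in the record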
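Detergent-free condition (0.00005% Triton X-100) in acetate buffer pH 5.5 with DTT. 1.5 nM enzyme and compound were pre-mixed 15 min, then 2 uM Z-FR-AMC substrate added; reaction progress from fluorescence change between first and third reads (60 s).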
NS1 inh: qHTS Assay for Inhibitors of Influenza NS1 Protein Function; AID 2326, 2010; 270,000 compounds, 0.4% hits; S. cerevisiae slowed by influenza A NS1, growth recovery by OD600; Potency, µM (highest dose often 46.1 µM), for the others: at the highest dose activity, positive = more growth; active means well fitted rising curve with a large enough effect; inconclusive means small, poorly fitted or top-dose-only effect; inactive means no such curve, though single readings can be large or run the other way; note: nearly all actives have a fitted effect of over 50% in size
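Read-out: OD600 growth recovery of NS1-expressing budding yeast. Cells grown overnight at 30C in -URA glucose medium, washed, resuspended and diluted 1:100 in 2% galactose assay medium, pH 6.0. Same strain lacking NS1 served as positive control.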
Lassa entry inh: qHTS for Inhibitors of binding or entry into cells for Lassa Virus | Lassa virus pseudotype entry inhibition, cell reporter; control for the full effect not named in the record | 300,000 compounds, 1.2% hits | Potency, µM (series often up to 37.9 µM), for inactives: at the highest dose activity change, negative = inhibition, actives largely listed as inhibitors; active means well fitted inhibition curve with a large enough effect; inconclusive means small, poorly fitted or top-dose-only effect, or effect the other way; inactive means flat fitted curve, though single readings scatter; tested in HEK293 cells; note: % is set by controls: 0 for no effect and ±100 for the full control effect; nearly all actives have a fitted effect of over 50% in size; luciferase read-out
* hit, by the source's call; ? = inconclusive; · = not tested or not shown; & = joins results of further samples; [ ] = another dose, or the depositor's remark. Unless noted, calls come from the whole dose curve; as a rule, active = well fitted curve in the direction sought with a large enough effect; inconclusive = small, poorly fitted or top-dose-only effect, or another doubt; inactive = no such curve, though single readings can be large; an effect the other way counts as inactive or inconclusive. Potency is the fitted concentration of half-maximal effect.

entry	Molecule	Marburg entry inh	SARS PLpro yeast	2A StopGo	RE007 growth inh	Cruzain inh Det	Cruzain inh noDet	NS1 inh	Lassa entry inh
1	COc1cccc(NC(=O)c2cn(C3CCCCC3)c(=O)c3c2c2ccccc2n3C)c1	-19.2%[46.1 µM]	·	0.0%	·	-7.3%	?	·	-28.9%[46.1 µM]
2	CN(C)Cc1c(C(=O)N/N=C/c2ccc(OCc3ccc(F)cc3)cc2)nnn1-c1nonc1N	-0.5%[46.1 µM]	-7.1%	-5.3%	2.2%	·	·	1.9%	6.0%
3	CC1CC(C)CN(CC(=O)c2ccc(OC(F)F)cc2)C1 (centres undefined)	1.6%	-26.3%	17.9%	-12.4%	-2.7%	-8.6%	-7.0%	7.6%
4	COc1ccc(S(=O)(=O)N2CCCCCC2)cc1	5.2%	5.0%	17.5%	3.4%	3.4%	-3.3%	-13.9%	3.7%
5	COc1ccc(-c2cc(C(=O)c3c(N)n(C)c(=O)n(C)c3=O)c3ccccc3n2)cc1	·	-2.4%	15.6%	-23.3%	·	·	-5.7%	·
6	O=C(COC(=O)c1ccccc1OCc1ccccc1Cl)NC1CC1	-17.7%	-12.0%	-8.1%	-3.0%	-6.7%	10.8%	4.5%	0.0%
7	CCCCC(=O)NC(c1ccc(N(CC)CC)cc1)c1ccc2cccnc2c1O (centres undefined)	?	3.98µM*	-2.2%	5.4%	·	·	-87.9%	?
8	COc1ccc(OCc2n[nH]c(=S)n2Cc2ccco2)cc1	-8.1%[46.1 µM]	4.6%	30.5%[activator]	2.0%	·	·	-3.4%	?
9	Cc1nc(SCC(=O)c2ccccc2)[nH]c(=O)c1Oc1ccc(Cl)cc1	-2.5%[46.1 µM]	1.0%	2.3%	7.9%	·	·	4.2%	?
10	CN(CC(=O)NCC1CCCO1)S(=O)(=O)c1ccc(Br)cc1 (centres undefined)	19.1%	-2.2%	-19.6%	-7.0%	·	·	4.9%	-2.7%
11	O=C(NCCNC(=O)c1ccccn1)c1ccc(-c2ccccc2)cc1	2.1%[46.1 µM]	-1.9%	-16.4%	-0.4%	·	·	-11.7%	-8.4%[46.1 µM]
12	O=C1CCCc2cc3c(cc21)CCCC3	-18.7%[46.1 µM]	·	14.5%	-12.9%	·	·	·	2.6%[46.1 µM]
13	CSc1nc(=O)c2c(n1C)NC(=O)CC2c1cc(F)cc(F)c1 (centres undefined)	3.1%[46.1 µM]	·	5.4%	·	-0.6%	4.4%	·	?
14	CC(OC(=O)CN1C(=O)c2ccccc2C1=O)C(=O)N(C)c1ccccc1 (centres undefined)	0.6%[46.1 µM]	2.0%	-11.7%	13.4%	·	·	·	11.7%
15	COc1ccc(-n2c(SC)nc3ccccc3c2=O)cc1	-13.0%	2.9%	-16.9%	15.7%	0.8%	-3.2%	-14.3%	-1.2%
16	CC(=O)Nc1ccc(S(=O)(=O)N(C)CC(=O)OCC(=O)Nc2cccnc2Cl)cc1	-27.3%	-11.4%	-9.8%	-1.4%	0.8%	-9.0%	-4.7%	-4.0%
17	CC1CCCCN1C(=O)CSc1nc(C2CC2)nc2c1cnn2-c1ccccc1 (centres undefined)	?	5.2%	·	11.1%	-5.6%	-0.5%	-75.5%	?
18	N#Cc1cc([N+](=O)[O-])ccc1Oc1ccc(-c2nnco2)cc1	-10.6%[46.1 µM]	-5.5%	-9.2%	-7.9%	·	·	-1.6%	-11.2%[46.1 µM]
19	O=C(NNC(=O)c1ccccc1[N+](=O)[O-])c1ccc(NS(=O)(=O)c2cccs2)cc1	8.1%	27.2%	-8.4%	11.1%	·	·	11.5%	20.6%
20	N#C/C(=C\c1cccnc1)c1ccccn1	·	-1.3%	4.9%	-16.1%	·	·	0.2%	·
21	O=C(Nc1ccc(Cl)cc1Cl)c1cc2ccccc2o1	-29.8%	24.8%	31.4%[activator]	-12.0%	·	·	6.6%	?
22	CCOC(=O)C(C)n1cnc2c(nnn2-c2ccc(OC)cc2)c1=O (centres undefined)	13.1%	-1.5%	22.5%	-10.0%	3.2%	-7.7%	6.3%	15.4%
23	CCC(=O)Nc1ccc(NC(=O)c2ccccc2Cl)nc1	1.6%	-2.7%	59.3%[activator]	0.3%	3.9%	-14.3%	-14.0%	9.2%
24	Cc1ccc2c(c1)C(c1ccccc1)N(C(=O)C(C)C)CC(=O)N2 (centres undefined)	·	8.1%	-15.3%	-14.9%	2.6%	5.4%	?	·
25	Cc1ccc(NC(=O)N2CCc3ccccc32)cc1	?	-31.8%	-55.1%	?	-2.0%	-16.9%	-5.6%	?
26	Cc1sc2c(c1C)c(=O)n(-c1ccccc1)c(=O)n2CC(=O)c1ccc(Cl)cc1	?	·	-6.1%	·	-3.1%	?	·	?
27	CN(C)CCNC(=O)C(=O)NCC1OCCCN1S(=O)(=O)c1cccs1 (centres undefined)	-2.4%	14.3%	-5.8%	2.7%	-1.8%	-0.7%	-11.5%	6.7%
28	Cc1ccc(-c2nn(Cc3ccccc3)cc2C=O)cc1	?	-39.3%	64.7%[activator]	64.8%	-5.6%	-5.6%	-13.8%	?
29	O=c1[nH]c(O)c(C=NC2CCN(Cc3ccccc3)CC2)c(=O)[nH]1	8.6%	-15.4%	10.4%	6.2%	-4.0%	3.0%	-126.1%	-0.6%
30	CCN(CC)C(=O)c1ccc(NC(=O)c2cc(S(=O)(=O)N3CCCCCC3)ccc2OC)cc1	-19.9%[46.1 µM]	-0.1%	-3.2%	16.6%	·	·	·	-1.5%
31	CC(=O)Nc1ccc(NC(=O)C2CC(=O)N(c3ccccc3Cl)C2)cc1 (centres undefined)	13.4%[46.1 µM]	-3.0%	-4.8%	4.1%	·	·	·	14.4%[46.1 µM]
32	CC(=O)/C(=N\Nc1ccccc1)Oc1ccc([N+](=O)[O-])cc1	-10.7%	-3.4%	9.3%	-1.7%	-8.4%	-9.6%	10.4%	-4.5%
33	COCCOC(=O)C1=C(N)Oc2c(oc(CO)cc2=O)C1c1c(F)cccc1Cl (centres undefined)	·	5.1%	3.4%	-2.6%	2.0%	-2.0%	9.0%	·
34	Cc1ccc(CNC(=O)c2ccc(S(=O)(=O)Nc3c(C)n(C)n(-c4ccccc4)c3=O)cc2)cc1	-14.0%	-1.3%	23.7%	0.2%	·	·	-8.7%	2.9%
35	CCn1c(=O)c2c3c(sc2n2c(=S)[nH]nc12)CCC3	-12.4%	-2.5%	-12.3%	24.3%	-0.7%	-1.2%	14.1%	2.5%
36	Cc1cc2ncn(S(=O)(=O)c3ccc(F)cc3)c2cc1C	·	9.9%	-14.9%	-6.2%	·	·	9.7%	·
37	CC(=O)Nc1ccc(SCC(=O)Nc2sccc2C#N)cc1	23.7%[46.1 µM]	2.9%	41.8%[activator]	-2.6%	·	·	·	18.6%
38	COCCCn1c(-c2ccc(OC)cc2)nc2c1c(=O)[nH]c(=O)n2Cc1ccccc1	?	5.8%	0.0%	-2.2%	·	·	38.8%	?
39	COc1cccc2c1C(=O)CC2NC(=O)C(F)(F)F (centres undefined)	10.8%	-0.6%	0.0%	10.5%	0.8%	6.8%	-0.2%	-1.9%
40	Nc1ccc2nc(-c3ccccc3)[nH]c2c1	-17.1%	-15.6%	31.0%[activator]	-6.5%	0.8%	27.9%	-6.3%	-12.8%
41	NC(=O)c1c(-c2cccs2)csc1N	-8.7%	-7.6%	2.4%	-14.1%	1.7%	-11.1%	17.7%	?
42	O=[N+]([O-])c1cc(-c2ccccc2)cc([N+](=O)[O-])c1O	-1.5%[46.1 µM]	·	?	-2.0%	·	·	·	4.1%[46.1 µM]
43	O=C(COc1ccccc1)Nc1cccc(-c2nn[nH]n2)c1	·	0.6%	-12.3%	5.3%	·	·	6.1%	·
44	COc1cccc(N2CCN(C(=O)c3cc4c(OC)c(OC)c(OC)cc4[nH]3)CC2)c1	·	-0.6%	-17.9%	3.9%	·	·	0.5%	·
45	Cc1ccc(-c2nc(CS(=O)(=O)CC(=O)NC3CCC(C)CC3)c(C)o2)cc1 (centres undefined)	·	1.6%	?	-19.6%	·	·	-16.6%	·
46	Cc1ccc(NC(=O)CN(C)C(=O)Nc2ccc(C)cc2)cc1	?	-4.1%	28.4%	-14.7%	·	·	-2.9%	-9.9%
47	O=S(=O)(NCCc1ccncc1)c1ccc(Br)cc1	3.7%	-5.4%	109.4%[activator]	7.5%	6.3%	6.8%	-4.8%	-0.6%
48	Cn1c(-c2ccc3c(c2)OCO3)c(C(=O)O)c(=O)c2ccccc21	0.2%	22.8%	-7.5%	-1.7%	-4.2%	-2.4%	-14.5%	10.9%
49	COc1cccc(NC(=O)CCc2c(C)nc3nc(CNC(=O)c4cccc(F)c4)nn3c2C)c1	1.2%&1.2%[46.1 µM]	-1.1%	-21.3%&4.4%	-4.7%	-8.6%	?	7.9%	14.3%[46.1 µM]
50	CCC(C)[C@H](NC(=O)[C@H](Cc1ccccc1)n1c(=O)[nH]c2ccccc2c1=O)C(=O)N1CCC(C(=O)O)CC1 (some centres undefined)	·	-3.2%	-22.3%	5.0%	·	·	24.2%	·

Going on with the list:
entry	Molecule	Marburg entry inh	SARS PLpro yeast	2A StopGo	RE007 growth inh	Cruzain inh Det	Cruzain inh noDet	NS1 inh	Lassa entry inh
51	CCOC(=O)c1c(C)oc(/N=C/c2ccccc2O)c1C#N	7.2%	3.2%	12.5%	11.0%	0.3%	4.7%	-1.7%	9.2%
52	COC(=O)C(NS(=O)(=O)c1ccccc1Br)C(C)C (centres undefined)	·	-0.2%	0.0%	-8.1%	·	·	5.1%	·
53	CCOC(=O)[C@@H]1[C@H]2COc3ccccc3[C@@H]2N2C(=O)N(c3ccc(F)cc3)C(=O)[C@@]12C	·	3.1%	-5.1%	4.9%	·	·	5.1%	·
54	COc1ccccc1C(=O)N/C(=C/c1ccco1)C(=O)Nc1ccc(C(=O)O)cc1	-7.1%[46.1 µM]	-2.1%	-20.1%	-19.1%	·	·	10.4%	5.2%
